gsp antagonist = qHTS for Antagonists of gsp, the Etiologic Mutation Responsible for Fibrous Dysplasia/McCune-Albright Syndrome: qHTS; gsp-mutant cells, cAMP HTRF, 30 min; control for the full effect not named in the record; 0.4% of 340,000 active; Potency, µM (highest dose often 76.9 µM), for inactives: at the top dose activity change, negative = inhibition, most hits filed as inhibitors; active = falling curve of any shape with a large fitted effect; inconclusive = falling curve, mostly with a smaller effect; inactive = flat or rising curve; cell line not stated here;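 also: intracellular cAMP measured with PDE inhibitor Ro 20-1724 present during compound exposure; potency is read from the fitted curve at half-maximal effect; % is scaled to controls: 0 for no effect and ±100 for the full control effect; nearly all actives have a fitted effect of over 65% in size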
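Measurement of cellular cAMP by homogeneous time-resolved fluorescence following a 30 min compound exposure at 37C. The PDE inhibitor […] was present throughout; the assay buffer was DPBS with 0.05% BSA and 0.005% Tween 20.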
Sfp inh = qHTS Assay for Inhibitors of Bacillus subtilis Sfp phosphopantetheinyl transferase (PPTase); 3.5% of 310,000 active; Potency, µM, for the others: max response, negative = inhibition, actives largely listed as inhibitors; Biochemical Sfp PPTase activity, qHTS; 4'-phosphopantetheinyl transferase ffp (Bacillus subtilis), Q9F4F7; active = well fitted inhibition curve with a large enough effect; inconclusive = small, poorly fitted or top-dose-only effect, or another doubt; inactive = no such curve, though single readings can be large or run the other way;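 also: the enzyme is Sfp with the accession as filed and its product quenches rhodamine fluorescence; potency is read from the fitted curve at half-maximal effect; 0% = enzyme reaction without inhibitor and -100% = no enzyme wells; top concentration of the series not given in the record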
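Reaction rates are the 30-min fluorescence difference (ex 525, em 598 nm) in wells containing 15 nM Sfp, 5 uM rhodamine-CoA and 12.5 uM BHQ-2-YbbR at pH 7.6 with 10 mM MgCl2.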
ClpP mod = qHTS Assay for Activators of ClpP; ATP-dependent Clp protease proteolytic subunit (Bacillus subtilis (strain 168)), P80244; 1.9% of 340,000 active; purified B. subtilis ClpP, FRET peptide cleavage, 20 min; Potency, µM (doses to about 57.5 µM), for inactives: at the top dose activity change, negative = active; AID 651965, 2013; active = well fitted falling curve with a large enough effect; inconclusive = small, poorly fitted or top-dose-only effect; inactive = no such curve, though single readings can be large or run the other way; also: potency is read from the fitted curve at half-maximal effect; the source files actives as falling curves though it sought activators and does not explain the sign; nearly all actives have a fitted effect of over 65% in size; many hits overshoot -100%
Target sequence (P80244 whole entry, looked up): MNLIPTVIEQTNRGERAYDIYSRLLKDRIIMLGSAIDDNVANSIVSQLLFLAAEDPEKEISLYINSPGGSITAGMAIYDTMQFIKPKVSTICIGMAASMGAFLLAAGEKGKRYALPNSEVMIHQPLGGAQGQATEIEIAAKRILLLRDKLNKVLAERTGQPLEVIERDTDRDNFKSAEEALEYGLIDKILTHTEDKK
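Purified B. subtilis ClpP, 10 microg/mL final in Tris/HCl pH8 with KCl, BSA, glycerol and Tween-20, cleaved an Abz/nitrotyrosine-quenched decapeptide. Fluorescence (ex 320, em 430) was read at 0 and 20 min at room temperature. Delta was normalized to 5.8 microM ADEP and DMSO/no-enzyme controls.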
Menin-MLL FL inh = qHTS Assay for Inhibitors Targeting the Menin-MLL Interaction in MLL Related Leukemias: Competition With Fluorescein Labeled MLL-derived Peptide; Fluorescence polarization, fluorescein-MLL peptide displacement from menin; FP activity change, % at 61.4 µM; 290,000 tested, under 10 active; inconclusive = falling polarisation curve, or a change in total fluorescence; inactive = total fluorescence flat and polarisation flat or rising; no compound was filed as active; the % refers to the polarisation; negative = inhibition;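 also: % of control where 0% means no effect; inhibitors lower the polarisation; unlabelled MLL peptide was the positive control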
TRPV1 PAM = HTS Assay for Compounds that Act as Potentiators of the Vanilloid Receptor 1 | TRPV1-expressing cells, Fluo-8 calcium influx, capsaicin EC20 potentiation; host cell line not named in the record; control for the full effect not named in the record | 0.02% of 320,000 active | potentiation, % at 8.33 µM | AID 540277, 2011 | Transient receptor potential cation channel subfamily V member 1 (Homo sapiens), Q8NER1; active means potentiation above 80%; inconclusive means 30% to 80%; inactive means below 30%; also: 0% is about no effect
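Fluo-8 calcium influx in TRPV1-expressing cells, kinetic read (ex 480/em 520 nm). Compound added and read 3 min for agonist activity, followed by capsaicin at EC20 final and 2 min further read for enhancement.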
TRPML1 blocker = qHTS for Inhibitors of the Human Mucolipin Transient Receptor Potential 1 (TRPML1) | Mucolipin-1 (Homo sapiens), Q9GZU1 | TRPML1-inducible cells, Ca2+ dye fluorescence, FDSS; hits give low values; inhibition of EC80 agonist-evoked calcium signal | activity change, negative = inhibition, % (test concentration not listed) | 0.02% of 390,000 active | AID 624415, 2012; in the data active means activity change below about -50%; inconclusive means about -30% to -50%; inactive means above about -30%;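 also: stimulus is agonist 54-4 at its EC80 concentration; % is scaled to controls: 0 for no effect and ±100 for the full control effect; compound concentration not given in the record; the text of the record puts the active cut at -80%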
Target sequence (Q9GZU1 whole entry, looked up): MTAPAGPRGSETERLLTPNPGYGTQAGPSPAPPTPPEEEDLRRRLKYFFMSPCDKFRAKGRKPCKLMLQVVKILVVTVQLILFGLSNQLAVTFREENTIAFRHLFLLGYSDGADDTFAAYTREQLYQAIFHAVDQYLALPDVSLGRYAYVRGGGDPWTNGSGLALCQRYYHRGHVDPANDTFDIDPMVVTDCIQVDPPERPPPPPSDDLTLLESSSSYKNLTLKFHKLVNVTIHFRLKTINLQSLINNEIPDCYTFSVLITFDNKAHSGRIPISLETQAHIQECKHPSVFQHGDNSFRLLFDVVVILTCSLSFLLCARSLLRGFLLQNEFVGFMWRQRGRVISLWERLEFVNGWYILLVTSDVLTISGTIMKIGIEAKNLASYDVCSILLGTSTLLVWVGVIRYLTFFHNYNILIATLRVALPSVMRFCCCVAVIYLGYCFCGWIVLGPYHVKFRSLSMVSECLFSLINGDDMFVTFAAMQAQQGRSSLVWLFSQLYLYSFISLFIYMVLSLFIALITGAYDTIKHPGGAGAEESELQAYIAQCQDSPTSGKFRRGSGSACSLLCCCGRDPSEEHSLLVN
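TRPML1-DL cells, Tet-induced overnight (~16 h, 37 °C) at 1,500 cells/well, were loaded with Ca8 no-wash dye plus quencher for 45-90 min at room temperature. Compounds were pinned during FDSS kinetic reading; agonist 54-4 at EC80 (4 uM final) then added.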
gsp ag = qHTS for Agonist of gsp, the Etiologic Mutation Responsible for Fibrous Dysplasia/McCune-Albright Syndrome: qHTS | gsp mutant cells, cAMP HTRF, 30 min; control for the full effect not named in the record | Potency, µM (titrated, usually from 76.9 µM), for inactives: at the highest dose activation (cAMP increase), hits mostly activators | 0.13% of 340,000 active | AID 624287, 2012; active = well fitted activation curve with a large enough effect; inconclusive = small, poorly fitted or top-dose-only effect, or another doubt; inactive = no such curve, though single readings can be large or run the other way; cell line not stated here;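 also: phosphodiesterase inhibitor Ro 20-1724 added with compounds to block cAMP breakdown; potency is read from the fitted curve at half-maximal effect; nearly all actives have a fitted effect of over 60% in size; about a fifth of the inactives were tested at one dose only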
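Cells in DMEM/10% FBS with G418 were pretreated with compounds in DMSO plus […] (300 uM stock) for 30 min at 37C. cAMP was measured by HTRF (cAMP-d2 plus anti-cAMP antibody-K) after 30 min at room temperature.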
Numbers without * were called inactive; i = inactive; u = inconclusive; x = not tested or not shown; & = joins results of further samples; [ ] = another dose, or the depositor's remark. Rows are unselected (roughly 4.9% active in at least one column).

SMILES | gsp antagonist | Sfp inh | ClpP mod | Menin-MLL FL inh | TRPV1 PAM | TRPML1 blocker | gsp ag
Cc1ccc(N(CC(=O)NC(C)(C)C)C(=O)CCC(=O)Nc2nccs2)c(C)c1 | -7% | 4% | 1.2% | 1.3 | 1 | -5 | 10%
Oc1ccccc1/C=N/c1c(-c2ccco2)nc2ccccn12 | -14% | -17% | u | u | -3 | 7 | -24%
CN(C)S(=O)(=O)c1ccc(N2CCCC2)c(C(=O)NNC(=O)COc2cccc(F)c2)c1 | 7% | x | -1.9% | x | -4 | -5 | 11%
CC1(C)OCC(N)(CO)CO1 | x | x | -0.9% | x | x | -2 | 25%
CC(=O)Nc1ccc2c(c1)Cc1c(F)cccc1-2 | -17% | x | 0.8% | x | x | -19 | -13%[15.4 µM]
Fc1cccc(C[n+]2csc3ccccc32)c1 | 7% | 20µM* | -1.5% | 2.3 | -11 | 17 | -70%
CCn1ccc(C(=O)Nc2ccccc2SC)n1 | -1% | u | x | -0.7 | -8 | 9 | -4%
C=C1c2cccc(OC)c2O[C@H](C(=O)OCC)[C@@H]1CC(CC)CCCC (stereo partly drawn) | 4% | 28% | -13% | -0.7[94.6 µM] | x | -10 | x
CCC(=O)Nc1cccc(-c2cc3ccccc3oc2=O)c1 | 1% | -3% | x | -4.5 | -3 | 16 | 0%
CCN1CCN(CC(=O)Nc2ccccc2)C(=O)C1=O | 7% | -4% | 0.8% | -3.4 | 0 | 7 | 12%
O=C(NC(=S)Nc1ccccc1O)c1ccc(-c2ccc(Cl)cc2)o1 | -2% | 16% | -12% | 6.3 | -10 | 3 | -2%
C/C=C/c1ccc(OCCCCN2CCC(C)CC2)c(OC)c1 | -3% | -13% | x | -2.5 | 28 | -15 | 7%[15.4 µM]
N#Cc1ccc(-c2csc(NC(=O)c3ccc(S(=O)(=O)N4CCc5ccccc5C4)cc3)n2)cc1 | 8% | 5% | -25% | 10 | -7 | -7 | u
O=C(CSc1nnnn1C1CCCCC1)Nc1ccccc1F | 8% | 22% | -0.5% | 4.1 | -14 | -12 | -30%
Cc1noc(/C=C/N(C)C)c1S(=O)(=O)NC1CCCCC1 | u | -1% | -1.1% | u | -11 | -14 | -3%
Clc1cccc(-c2sc(Nc3ccccc3)n[n+]2-c2ccccc2)c1Cl | u | 50µM* | 1.9% | -2.9 | 3 | -3 | -20%
COc1ccc(S(=O)(=O)Nc2cc(C)on2)cc1NC(C)=O | 4% | x | 0.8% | x | -19 | -7 | 31%
COc1ccc(-c2n[nH]c(=S)n2-c2ccc(C)cc2)cc1 | -26% | u | -14% | -4.2 | 26 | x | u
COc1ccc(N2CC(C(=O)NCCC3=CCCCC3)CC2=O)cc1 (stereo not drawn) | -6% | 9% | -0.5% | -1.7 | -11 | -13 | u
CCN(C(=O)CSc1nc2ccc(OC)cc2[nH]1)C1CCS(=O)(=O)C1 (stereo not drawn) | 8% | x | 1.9% | x | 2 | -1 | -1%
CC(C)Cc1nnc(NC(=O)CSc2nc(=O)cc(N)n2-c2ccccc2)s1 | -2% | -10% | 1.5% | -1.0 | 0 | 0 | 16%
CCOc1ccc(NC(=O)CCNS(=O)(=O)c2ccc3c(c2)oc(=O)n3C)cc1 | 3% | 3% | 0.6%&-0.7% | x | 9 | -5&8 | 12%
Cc1cc(C)c(C(=O)N(C)C2CCCN(Cc3ccccc3F)C2)o1 (stereo not drawn) | -17% | 7% | -1.7% | x | -10 | 4 | 22%
CCN1CCN(C(=O)c2cc3cc4cc(OC)ccc4nc3s2)CC1 | 2% | 14% | u | 5.3 | u | -1 | 1%
Cc1cc(=O)n2nc(N3CCCC3C(=O)NCCCN3CCCCC3)sc2n1 (stereo not drawn) | 4% | -1% | -2.9% | 0.7 | -9 | 2 | -9%
O=C(/C=C/c1ccccc1Cl)c1cccnc1 | 2% | 32µM* | 2.8% | -0.7 | -13 | 2 | 0%
CSCC(=O)NCC1(N(C)Cc2ccccc2)Cc2ccccc2C1 | 9% | 18% | -1.4% | 3.8 | -13 | 16 | -1%[15.4 µM]
CCCC(=O)Nc1ccc(-c2cnc(-c3ccc(NC(=O)CCC)cc3)nc2)cc1 | 1% | 15% | u | 6.0 | -9 | -5 | -7%
C[C@H](CO)N1C[C@H](C)[C@@H](CN(C)S(=O)(=O)c2cccs2)Oc2ccc(NS(=O)(=O)c3ccc(F)cc3)cc2C1=O | -6% | x | 0.1% | x | x | 1 | -6%
O=C(CSCc1c(Cl)cccc1Cl)Nc1nccs1 | 10% | 16% | 0.5% | 7.5 | -7 | 7 | 6%
O=c1[nH][nH]c2c(N=Cc3ccccc3O)ccc(F)c12 | 1% | 7.9µM* | x | u | 26 | -10 | -41%[inhibitor][15.4 µM]
Cc1ccc(S(=O)(=O)NC(=NC(Cc2ccccc2)C(=O)O)c2ccccc2)cc1 (stereo not drawn) | -5% | 27% | x | 1.8 | 10 | 22 | -4%[15.4 µM]
COC(=O)[C@@]1(Cc2ccc(OC)cc2)[C@H]2c3cc(C(=O)N4CCCC4)n(Cc4ccsc4Br)c3C[C@H]2CN1C(=O)c1ccccc1 | x | 10% | -3.3% | 5.4 | x | x | x
Cc1cc(C)c2oc(C(=O)Nc3nnc(C(C)C)s3)cc(=O)c2c1 | -20% | 3% | 0.2% | x | 12 | 1 | -16%
CCN(c1ccccc1)S(=O)(=O)c1ccc(OC)c(NC(=O)CCc2nc3ccccc3c(=O)[nH]2)c1 | 4% | x | 0.4% | x | 8 | -14 | 2%[15.4 µM]
Cc1cc(C(=O)CSc2nnc(-c3ccccc3F)o2)c(C)n1Cc1cccs1 | -35% | 28µM* | -2.1% | 7.8 | 3 | -5 | 0%
COc1ccc2oc(C(=O)OCC(=O)NC(C)(C#N)C3CC3)c(C)c2c1 (stereo not drawn) | -13% | x | 32µM* | x | -12 | 0 | 5%
Cc1nn(Cc2ccc([N+](=O)[O-])cc2)c(=O)n1-c1ccc(F)cc1 | 0% | -10% | -0.1% | 0.9 | 26 | -11 | u
COc1ccc(N2CCN(c3ccc(NC(=O)NN)cc3)CC2)cc1 | 5% | 11% | -0.8% | -7.0 | -2 | -18 | 5%[15.4 µM]
Brc1ccccc1OCCCCCN1CCCC1 | x | -15% | x | 3.3 | 5 | x | x
COc1ccc(Cl)cc1NC(=O)CNCc1cccs1 | -1% | -10% | 0.1% | -0.1 | 7 | 6 | -1%
O=C(c1ccco1)N1CCN(Cc2nnc(-c3ccccc3F)o2)CC1 | 10% | 4% | x | -14 | u | 8 | 14%
COc1cccc(CNS(=O)(=O)c2ccc3c(c2)NC(=O)CS3)c1 | -2% | 15% | 0.8% | x | 4 | 2 | -34%
CC(=O)Cc1nsc(NC(=O)c2cccc(F)c2)n1 | -12% | 2% | 2.6% | -2.3 | -3 | 4 | 21%
CCCc1nc2ccc(NC(=O)NCCC(=O)OCC)cc2c(=O)n1Cc1cccc(Cl)c1 | -5% | 15% | -24% | -0.2 | 7 | -9 | -53%[inhibitor]
CC(=O)c1c(C)[nH]c(C(=O)NCc2ccco2)c1C | -6% | 16% | x | -0.2 | 5 | 4 | -14%[15.4 µM]
COc1ccc(/C=C2\Oc3cc(OCC(=O)N4CCC[C@H]4CO)ccc3C2=O)c(OC)c1 | u | 6% | -3.0% | u | -2 | -6 | 2%
O=C1CC(=O)CC(c2ccccc2Cl)C1 | -14% | -3% | 1.2% | 8.2 | -17 | -5 | 8%
Cc1cc2c(c(=O)n1Cc1ccccc1)C1O[C@](CCCCN3C(=O)c4ccccc4C3=O)(Cc3ccccc31)O2 | x | 7% | x | 0.5[11.7 µM] | i | x | x
COC(=O)c1ccc(N2CCN(C)CC2)c(NC(=O)COc2ccc(OC)cc2)c1 | 3% | 5% | -7.9% | 5.9 | 4 | -2 | -3%
COc1ccccc1NC(=O)C(=O)N/N=C/c1cccs1 | 1% | -2% | -7.4% | 2.8 | 0 | 19 | -15%
CC(C)CCNC(=O)CSc1nnc(-c2ccc(S(=O)(=O)N3CCCC3)cc2)n1C | -10% | 2% | -7.7% | -1.6 | 8 | -12 | 14%
CCOC(=O)c1c[nH]c2c(C(=O)c3ccccc3)cc(Cl)cc2c1=O | -26% | 11% | 1.5% | 3.0 | -4 | -4 | 25%
O=C(COC(=O)c1cnccn1)Nc1ncc(Cl)cc1Cl | 7% | x | 0.2% | x | 1 | -13 | -6%
CC1(C)C([N+](=O)[O-])C(c2ccc(F)cc2)NC(c2ccc(F)cc2)C1[N+](=O)[O-] (stereo not drawn) | -34% | 23% | 1.5% | -3.4 | 5 | 51 | 6%[15.4 µM]
O=C(NCc1ccc2c(c1)OCO2)c1cccc(S(=O)(=O)N2CCOCC2)c1 | -4% | 10% | 1.3% | -1.6 | -6 | 8 | -49%[inhibitor]
CCc1ccc(-c2cnc3nc[nH]c(=O)c3n2)cc1 | 1% | x | 0.2% | x | x | 16 | 4%[15.4 µM]
Cc1cccc(CSc2nnc(CCNC(=O)OC(C)(C)C)o2)c1 | 6% | 7% | x | -0.2 | -44 | -2 | -2%[15.4 µM]
Cc1ccc(S(=O)(=O)/N=C(\CN2CCOCC2)N2CCOCC2)cc1 | 12% | 4% | -0.5% | 2.0 | 2 | -26 | 1%
